Tg IFNy HTS = blocks Toxoplasma gondii growth in the presence of IFN-gamma; Toxoplasma gondii growth in IFN-gamma-treated host cells; active compounds read low; reference of the scale not given here; activity change, negative = inhibition, %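 (about 20 µM by stock and volumes)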; actives 3.8% (n = 69,000); AID 1259416;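 active means below -70%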;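 further: host cells are HeLa cells infected with Toxoplasma gondii; parasite growth read as luciferase light; one replicate is shown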
The depositor's hits bear a star; i = inactive; & = joins results of further samples. This is a subset. The share of hits here may be higher or lower than overall.

SMILES	Tg IFNy HTS
O=C(O)CC1CCC(c2ccc(-c3ccc(Nc4ccc(C(F)(F)F)nc4)cn3)cc2)CC1 (stereo not drawn)	-61.2
CC(C)Cc1cc(C(=O)N2CCCC2c2cc(C(C)C)on2)n(C)n1 (stereo not drawn)	-5.1
CCn1c(CC2CCN(c3cnc4ccccc4n3)CC2)nn(C)c1=O	-36.1
O=C(C[C@H]1CC[C@@H](NC(=O)c2cccnc2)[C@@H](CO)O1)NCc1ccc(Cl)c(Cl)c1	-35.1
CC(C)C(NC(=O)C1Oc2ccccc2O1)c1cccs1 (stereo not drawn)	45.8
CCN1CCN(C(=O)c2ccc(N3CCC(NCCc4ccc(C(F)(F)F)cc4)CC3)cc2)CC1	-4.2
c1cnc(N2CCOCC3(CCN(Cc4ccc[nH]4)CC3)C2)nc1	-2.3
CCOC(=O)CSC1=Nc2ccccc2C2=NC(CCC(=O)NCc3ccc4c(c3)OCO4)C(=O)N12 (stereo not drawn)	-17.2
CCCOC1CCCN(c2ccnc(C(=O)NCc3ccco3)c2)C1 (stereo not drawn)	1.9
O=[N+]([O-])c1ccc2cn[nH]c2c1	-11.7
CNC[C@H]1Oc2c(NS(=O)(=O)c3ccc(Cl)cc3)cccc2C(=O)N([C@@H](C)CO)C[C@@H]1C	13.2
COc1ccc(Cc2n[nH]c(=O)o2)cc1OC	-40.5
CCc1nc(N2CCOCC2)ncc1C(=O)NCCN1CCc2ccccc21	79.7
O=C(CC1CCc2ccccc21)N(CCO)Cc1ccco1 (stereo not drawn)	-1.8
CC(=O)N1CCN(c2nc(C)cc(C)n2)CC1	16.6
Cc1ccc2c(n1)N(Cc1ccncc1)CCN(C(=O)N(C)C)C2	5.0
COc1ccccc1C1(O)CCCN(C(=O)c2csc(C(C)=O)c2)C1 (stereo not drawn)	57.1
Cc1nn(C)cc1NC(=O)Nc1ccc(F)cc1	30.9
CCN1CCC2(CC1)OC(=O)C(C)=C2C(=O)Nc1ccc(F)cc1F	138.3
Cc1ccc(-c2nc(CCNC(=O)C(=O)Nc3ccc([N+](=O)[O-])cc3)cs2)cc1	112.8
CC1=C(C(=O)N(Cc2nccn2C)C(C)C)C(C)NC(=O)N1 (stereo not drawn)	10.4
CNC(=O)[C@@H]1C[C@@H](N)CN1C(=O)C1(C(F)(F)F)CC1	10.3
Cn1ccnc1-c1ccccc1C(=O)N1C[C@@H]2[C@H](C1)[C@H]1CC[C@@H]2O1	2.6
c1cncc(OCC2CC3(CCN(Cc4ccco4)CC3)CO2)c1 (stereo not drawn)	28.6
CCN(CC)Cc1cnc2c(C(=O)N(C)Cc3sccc3C)cnn2c1	-11.2
SMILES	Tg IFNy HTS
COC(=O)c1csc2c(C(F)(F)F)cc(=O)[nH]c12	-40.6
O=C(O)c1cccnc1N1CCCC(N2CCCC2=O)C1 (stereo not drawn)	-7.0
Cc1cc(Br)c2c(c1)c(N=NC(N)=S)c(O)n2C	-30.9
O=C(CCCCCn1c(=S)[nH]c2ccccc2c1=O)N1CCC(O)(c2cccc(C(F)(F)F)c2)CC1	-0.8
CN(C)S(=O)(=O)N1CC[C@@H](OCC2CC2)[C@@H](Cc2ccccc2)C1	-11.9
CN1C(=O)c2cc(NC(=O)Cc3cccs3)ccc2OC[C@H]2O[C@@H](CC(=O)NCC3CCCCC3)CC[C@H]21	-47.6
O=C(Nc1ccccc1F)N1CCn2nnc(COc3cccnc3)c2C1	26.8
C[C@@H]1CN([C@H](C)CO)C(=O)c2c(c3ccccc3n2C)-c2ccccc2CO[C@@H]1CN(C)S(=O)(=O)c1ccccc1C#N	-45.9
CCn1c(-c2cc(NC(=O)c3cncc(Br)c3)n[nH]2)cc2c(OC)cccc21	-96.6*
CC(C)(C)[S@@](=O)N1Cc2cc(C(=O)NCc3ccccc3F)nc(-c3cccc(-c4cncnc4)c3)c2[C@H]1CCO	-17.9
S=c1[nH]nc(-c2cccs2)n1C1CCCCC1	-42.7
CC(=O)c1cc(CC(=O)NCc2cc(=O)[nH]c(C(C)(C)C)n2)cs1	2.1
COCC(=O)N1CCN(Cc2csc(C)n2)c2ncccc2C1	87.1
CCOC1COC2(CCN(C(=O)c3csc(C)n3)CC2)C1 (stereo not drawn)	-15.0
CSc1nnc(-c2csc(S(=O)(=O)Nc3cccc(C(F)(F)F)c3)c2)n1C	-59.8
COC(=O)CNC(=O)CS(=O)(=O)C(C)C	-28.7
Cc1nnsc1C(=O)N1CCN(C(=O)C2COc3ccccc3O2)CC1 (stereo not drawn)	-26.7
O=C1CC(C(=O)N2CCCC(c3ncc4c(n3)CCNC4)C2)c2ccccc2N1 (stereo not drawn)	-8.9
COc1cc([C@@H]2c3cc4c(cc3C(OC3OC5COC(C)OC5C(O)C3O)C3OCC(=O)[C@@H]32)OCO4)cc(OC)c1O (stereo partly drawn)	-81.0*
CC(C)c1nccn1-c1ccc(Oc2ccccc2)nc1	12.0
Cc1ccc(S(=O)(=O)N2C[C@H](O)COC[C@@H]3O[C@H](CC(=O)NCc4ccc5c(c4)OCO5)CC[C@H]32)cc1	-49.2
O=C(NCCc1csc(-c2ccccc2)n1)[C@H]1CCCN1S(=O)(=O)c1cccc(F)c1	-46.7
CC(C)CN1C(=O)N(CCCc2cccnc2)C(=O)C12CCN(Cc1ccccn1)CC2	1.9
CN(C)S(=O)(=O)c1ccc2c(c1)cc(C(=O)NCc1ccc(Cl)cc1)n2Cc1ccncc1	-41.9
Cc1cc(C)n(Cc2nc(-c3ccc(NC(=O)c4ccc(N(C)C)cc4)cc3)oc2C)n1	66.5
SMILES	Tg IFNy HTS
Cc1ccc(CN2CCC(F)(F)C3(CCN(c4ncccn4)C3)C2)s1 (stereo not drawn)	-7.3
COc1ccc(CNc2nc(SCc3ccccc3F)nc3ccccc23)cc1	-8.9
O=C(O)C1CN(C(=O)CC2CCN(Cc3ccccc3)CC2)CCN1 (stereo not drawn)	5.1
CN(C)c1nc2c(c(N(C)C)n1)CCN(C(=O)c1cccc3c1OCC3)C2	-4.4
CCOc1ccc2nc(SCC(=O)n3c4c(c5ccccc53)CCCC4)sc2c1	29.2
C[C@@H]1CN([C@H](C)CO)C(=O)c2cccc(NC(=O)c3ccc(-c4nccs4)cc3)c2O[C@H]1CN(C)C(=O)Nc1ccc(C(F)(F)F)cc1	6.8
CC(=O)N1CCC[C@H]1C(=O)N(Cc1ccco1)Cc1ccco1	-0.5
CCS(=O)(=O)N1CCC2(CC1)COC(COc1cccnc1)C2 (stereo not drawn)	2.7
COc1ccccc1-c1noc(CCC(=O)N2CCCC2C(F)(F)F)n1 (stereo not drawn)	1.0
Cc1ccc(-c2nc(CN(C)S(=O)(=O)c3ccc(C)c(C)c3)c(C)o2)cc1	-33.0
N#Cc1cc(-c2n[nH]c(-c3ccncc3)n2)ccn1	14.4
c1ccc(C[C@@H]2[C@H](OCC3CC3)CCN2Cc2ccco2)cc1	16.1
c1ccc2c(CCNc3ccc(Nc4ccncc4)cc3)c[nH]c2c1	-61.9
OCCC1CN(Cc2ccc(O)c(Cl)c2)CCN1Cc1ccc(F)c(F)c1 (stereo not drawn)	-4.4
Clc1cccc(CN2CCN(Cc3ncc[nH]3)CC2)c1	0.9
Cn1c(-c2cc3n(n2)CCCN(C(=O)C2C=CCN2)C3)nc2ccccc21 (stereo not drawn)	28.7
O=C(c1ccc[nH]1)N1CCC2OCCN(c3cccnc3)C2CC1 (stereo not drawn)	7.1
COc1ccc(OCC(=O)NCCc2csc(-c3ccc(Cl)cc3)n2)cc1	41.7
CSc1ccc(C2c3[nH]c4ccccc4c3CCN2C(=O)CCc2ccccc2)cc1 (stereo not drawn)	-61.4
COC(=O)c1ccccc1NC(=O)Nc1ccc(-c2nc(-c3ccc(C)cc3C)co2)cc1	10.6
COc1ccc2[nH]cc(CCNC(=O)c3sc4ncccc4c3-n3cccc3)c2c1	i
CCCN1C(=O)CCc2cc(C(=O)NCCOC)ccc21	-0.3
COCC(=O)N1CCCN(Cc2ccc3c(C)cc(=O)oc3c2)CC1	6.8
COCCN1CCOCC12CCN(c1nccc(C(F)(F)F)n1)CC2	-7.9
Cc1ccc(CNC(=O)c2c(O)c3ccccc3[nH]c2=O)o1	182.4
SMILES	Tg IFNy HTS
O=C(CCN1CCOCC1)C1CC2(CO1)CN(C(=O)c1ccccc1)c1ccccc12 (stereo not drawn)	0.2
C[C@@H]1CN([C@@H](C)CO)C(=O)c2c(c3ccccc3n2C)-c2ccccc2CO[C@@H]1CN(C)C(=O)[C@H](Cc1ccccc1)N(C)C	-63.6
COc1ccccc1-n1cc(C(=O)NCc2cnc(C)cn2)cn1	0.5
COc1cc2c(cc1OC)-c1cc(NC3CCCCCC3)nc(=O)n1CC2	10.1
Cc1ccc2c(c1C)-n1cccc1C1(CCN(C(=O)Cc3ccccc3)CC1)N2	58.3
COc1ccc(OC(C)C(=O)Nc2ccccc2F)cc1 (stereo not drawn)	7.1
COCCNC(=O)C[C@@H]1CC[C@H]2[C@@H](COC[C@H](O)CN2Cc2ccc(Cl)c(Cl)c2)O1	5.5
COc1ccccc1OCc1cc(C(=O)N2CCc3nnc(C)n3CC2)n[nH]1	1.4
CCOc1cccc(C2c3[nH]c4ccccc4c3CCN2C(=O)c2ccccc2)c1 (stereo not drawn)	-34.3
O=C(NCCN1CCOCC1)c1cccc(C2CCNC2)c1 (stereo not drawn)	-0.1
C=CCNC1=C2C[C@@H](C)C[C@H](OC)[C@H](O)[C@@H](C)/C=C(\C)[C@H](OC(N)=O)[C@@H](OC)/C=C\C=C(/C)C(=O)NC(=CC1=O)C2=O	-57.7
CCOc1c2ccccc2nc2ccccc12	-123.1*
Cc1cccc(CN2CCN(Cc3ccc4occc4c3)CC2)c1	-8.1
O=C(CC1CCc2ccccc21)NCCS(=O)(=O)N1CCCC1 (stereo not drawn)	-51.4
COc1ncc(C2(O)C3CCCC2CN(Cc2cc(C)ccc2OC)C3)c(OC)n1 (stereo not drawn)	35.3
O=S1(=O)Cc2cnc(NCC3CC3)nc2[C@H]2CN(Cc3ccc(F)cc3)C[C@@H]21	-7.3
Cc1noc(C)c1C(=O)N1CCCC(N(C)C(=O)c2nccc3ccccc23)CC1 (stereo not drawn)	-28.5
Cc1ccc2cc(CN(Cc3nccn3C)C3CC3)c(=O)[nH]c2c1	-4.5
COc1ccc(OC)c(CN(Cc2cnn(C)c2)Cc2ccco2)c1	-22.4
C[C@@H](NC(=O)C[C@H]1CC[C@@H]2[C@H](COc3ccc(NS(=O)(=O)c4ccc(Cl)cc4)cc3C(=O)N2C)O1)c1ccccc1	-8.7
CC(=O)Nc1ccc(S(=O)(=O)Nc2cncc(C(=O)N3CCN(c4ccc(F)cc4)CC3)c2)cc1	7.3
Cc1cc(C)n(CCC(=O)N2CC(=O)N(CCc3ccccc3)C(=O)C2)c(=O)n1	5.3
CO[C@@H]1CN(C)C(=O)c2ccc(NC(=O)C3CCC3)cc2OC[C@H](C)N(Cc2ccccn2)C[C@@H]1C	-18.0
CCOC(=O)c1ccc2c(c1)N(Cc1nc(-c3ccccc3)oc1C)C(=O)c1ccccc1S2	59.9
CCc1ccccc1NC(=O)c1scc(Br)c1OC	-2.4
SMILES	Tg IFNy HTS
CC(=O)N(CCS(=O)(=O)c1ccc(Cl)cc1)Cc1cccs1	118.9
CC(=O)c1cccc2c(O)c(C3=Nc4ccccc4C3=O)[nH]c12	116.1
O=C(NCCc1csc(-c2ccc(Cl)cc2)n1)C(=O)Nc1ccc(F)cc1F	17.8
C[C@@H]1CN([C@H](C)CO)C(=O)c2cccc(NC(=O)Nc3ccc(F)cc3)c2O[C@@H]1CN(C)S(=O)(=O)c1ccc(Cl)cc1	-54.8
CC1=C(C(=O)NCCN2CCCCC2C)C2(CCN(S(C)(=O)=O)CC2)OC1=O (stereo not drawn)	27.3
Cc1cc(C)c(S(=O)(=O)NCCc2csc(-c3ccc(F)cc3)n2)cc1C	13.9
O=C(CSc1nc2ccccc2n1Cc1ccc(F)cc1)c1ccc2c(c1)OCCO2	-24.5
CC(C)N(C)Cc1ncn2c1CN(S(=O)(=O)c1cccs1)CCC2	3.6
COCCC(=O)c1cc2ccc(-c3cccc(Cl)c3)cn2c1-c1cocn1	-2.0
Cc1ccc(S(=O)(=O)NCC(c2cccnc2)c2c[nH]c3ccccc23)c(C)c1 (stereo not drawn)	-58.1
Cc1ccc(Sc2ccc(NC(=O)Nc3ccc(OC(F)(F)F)cc3)cn2)cc1	-66.8
C=CCN1CC(c2nc3ccccc3n2CC(=O)N(c2ccccc2)C(C)C)CC1=O (stereo not drawn)	-22.5
CC[C@H](C)n1cc(C)c2c(C(=O)NCc3c(C)cc(C)[nH]c3=O)cc(-c3ccc(N4CCNCC4)nc3)cc21	2.9
CC=Cc1ccc2n(c1=O)C[C@@H]1[C@@H](CO)[C@H](C(=O)N3CCOCC3)[C@H]2N1CC1CCCC1 (mixture of isomers)	-4.2
COc1ccc(-c2nc(Cn3nnc(-c4nc(-c5ccc(Cl)c(F)c5)no4)c3C)c(C)o2)cc1	-1.6
CO[C@H]1CN(C)C(=O)c2ccc(NC(=O)c3nc4ccccc4s3)cc2OC[C@H](C)N(Cc2cccnc2)C[C@H]1C	-112.9*
Cc1ccc(C)c(NC(=O)CCN2CCC(Oc3cccnc3)CC2)c1	-14.0
CNCCC(Oc1ccccc1OC)c1ccccc1 (stereo not drawn)	5.6&27.6

6 neighbouring compounds out of the list so far, for reference:
SMILES	Tg IFNy HTS
Cc1ccc(S(=O)(=O)NCC(c2cccnc2)c2c[nH]c3ccccc23)c(C)c1 (stereo not drawn)	-58.1
Cc1ccc(Sc2ccc(NC(=O)Nc3ccc(OC(F)(F)F)cc3)cn2)cc1	-66.8
C=CCN1CC(c2nc3ccccc3n2CC(=O)N(c2ccccc2)C(C)C)CC1=O (stereo not drawn)	-22.5
CC[C@H](C)n1cc(C)c2c(C(=O)NCc3c(C)cc(C)[nH]c3=O)cc(-c3ccc(N4CCNCC4)nc3)cc21	2.9
CC=Cc1ccc2n(c1=O)C[C@@H]1[C@@H](CO)[C@H](C(=O)N3CCOCC3)[C@H]2N1CC1CCCC1 (mixture of isomers)	-4.2
COc1ccc(-c2nc(Cn3nnc(-c4nc(-c5ccc(Cl)c(F)c5)no4)c3C)c(C)o2)cc1	-1.6

Pulled by structure from the list above (four):
SMILES	Tg IFNy HTS
Cc1cc(Br)c2c(c1)c(N=NC(N)=S)c(O)n2C	-30.9
CCc1nc(N2CCOCC2)ncc1C(=O)NCCN1CCc2ccccc21	79.7
c1cnc(N2CCOCC3(CCN(Cc4ccc[nH]4)CC3)C2)nc1	-2.3
CC(=O)c1cc(CC(=O)NCc2cc(=O)[nH]c(C(C)(C)C)n2)cs1	2.1
